VDR inhibitor: inhibitors of human vitamin D receptor; P11473; VDR-SRC2-3 peptide fluorescence polarization, 2 h; Potency, µM, inactives show max response, negative = inhibition, most hits filed as inhibitors; 0.93% of 400,000 active; AID 504847; active = well fitted inhibition curve with a large enough effect; inconclusive = small, poorly fitted or top-dose-only effect, or another doubt; inactive = no such curve, though single readings can be large or run the other way; note: series mostly up to about 120 µM
Target sequence (P11473 whole entry, looked up): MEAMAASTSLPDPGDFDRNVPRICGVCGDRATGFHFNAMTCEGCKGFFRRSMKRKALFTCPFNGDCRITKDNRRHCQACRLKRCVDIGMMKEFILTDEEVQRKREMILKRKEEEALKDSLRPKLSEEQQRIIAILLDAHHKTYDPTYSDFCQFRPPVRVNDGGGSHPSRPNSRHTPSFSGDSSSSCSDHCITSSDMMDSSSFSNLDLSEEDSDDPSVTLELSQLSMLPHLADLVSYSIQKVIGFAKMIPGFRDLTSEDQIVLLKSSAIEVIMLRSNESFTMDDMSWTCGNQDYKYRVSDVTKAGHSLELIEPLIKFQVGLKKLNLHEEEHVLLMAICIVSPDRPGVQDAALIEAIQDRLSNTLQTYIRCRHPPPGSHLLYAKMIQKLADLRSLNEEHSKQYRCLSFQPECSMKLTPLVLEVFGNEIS
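Reagent solutions, kept cold and dark, are dispensed first; compounds are then pinned in at 23 nl, plates briefly spun, and incubated 2 h at ambient temperature. Inhibition of VDR–SRC2-3 peptide binding is read by fluorescence polarization.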
* = called active by the depositor; u = inconclusive; & = joins results of further samples. % is set by controls: 0 for no effect and ±100 for the full control effect; potency is the fitted concentration of half-maximal effect. These rows are one share of the data; rates above refer to the full screens.

no.	Structure	VDR inhibitor
1	COc1ccc(Cl)cc1NC(=O)CCN1CCN(c2ccccc2C)CC1	14%
2	CCOc1cc(/C=N/N2C(=O)NC3(CCCCC3)C2=O)cc(Br)c1O	-15%
3	CCOC(=O)c1c(-c2ccc(C)cc2)csc1NC(=O)c1nc(SC(C)C)ncc1Cl	-1%
4	CCc1ccc(N2C(=O)CS(=O)(=O)C23C(=O)N(Cc2ccccc2)c2ccccc23)cc1 (configuration not stated)	-3%
5	O=C(Nc1cccc(C(F)(F)F)c1)C1CCCN1S(=O)(=O)c1cccc2cccnc12 (configuration not stated)	-4%
6	CC(C)C(C(=O)OCC(=O)c1cccc([N+](=O)[O-])c1)N1C(=O)[C@@H]2[C@H]3CC[C@H](C3)[C@@H]2C1=O (some centres not stated)	5%
7	CCCN(CCC)CCCNC(=O)c1cc2c(=O)oc3ccc(C)cc3c2s1	2%
8	CC(=O)Nc1ccccc1NC(=O)CN(C)S(=O)(=O)c1ccc(C)cc1	-18%
9	OCC1=C[C@@H](O)[C@@H]2C=CO[C@@H](O[C@@H]3O[C@H](CO)[C@@H](O)[C@H](O)[C@H]3O)[C@H]12	-3%
10	c1ccc2sc(NN=C3CCCC3)nc2c1	8%
11	COc1cc(C(=O)NNC(=O)c2cc(C)[nH]n2)cc(OC)c1OC	-5%
12	CCCC(=O)N(c1ccccc1)C1C=CS(=O)(=O)C1 (configuration not stated)	9%
13	Fc1ccc(Nc2nc(-c3ccncc3)cs2)cc1	7%
14	Cc1ccc(-n2nc3c(N4CCC(C(=O)NCc5ccccc5Cl)CC4)nnc(C)c3c2C)cc1	0%
15	CC(=O)Nc1ccc(S(=O)(=O)N2CCN(C(=O)c3ncoc3-c3ccccc3)CC2)cc1	-5%
16	Cc1ccc(-c2nnn(C/C(N)=N/O)n2)cc1	-17%
17	Oc1c(C(c2ccccc2Cl)N2CCN(Cc3ccccc3)CC2)sc2nc(-c3ccco3)nn12 (configuration not stated)	9%
18	Cc1ccc(-c2nc(CN3CCCCC3CCN3CCCC3=O)c(C)o2)o1 (configuration not stated)	-12%
19	CCCNC(=O)C(NS(=O)(=O)c1cccc2nsnc12)c1ccccc1 (configuration not stated)	-1%
20	O=C(c1ccc(Br)c([N+](=O)[O-])c1)N1CCN(Cc2ccccc2)CC1	-8%
21	COc1ccc(CC(=O)OCC(=O)c2ccc(S(=O)(=O)N3CCCCC3)cc2)cc1	14%
22	CCOC(=O)c1cccc(NC(=O)C2(S(=O)(=O)c3ccc(C)cc3)CC2)c1	-6%&0%
23	Cc1cc(C(=O)CCl)c(C)n1-c1cccc([N+](=O)[O-])c1	-20%
24	C=CCc1ccccc1OCCSc1nc2ccc([N+](=O)[O-])cc2s1	-10%
25	O=C(NCCN1CCOCC1)c1cccc(S(=O)(=O)Nc2cc(Cl)ccc2Cl)c1	6%
26	COC(=O)C1C2C=CC3(CN(c4cccc(C)c4)C(=O)C13)O2 (configuration not stated)	-24%
27	CC(=O)c1cc2c(s1)-c1cc(F)ccc1OC2	-8%
28	Cc1ccccc1NC(=O)c1sc2nc(-c3cc4ccccc4oc3=O)[nH]c(=O)c2c1C	5%
29	Cc1cc(SCC(=O)c2cccs2)n2nc(C)c(-c3ccccc3)c2n1	4%
30	O=C(O)C1CCCCC1C(=O)N1CCCC1 (configuration not stated)	-2%

no.	Structure	VDR inhibitor
31	CN(C)CCN(C(=O)CCc1ccccc1)c1nc2c(F)cc(F)cc2s1	-16%
32	COc1ccc(N2CCN(C(=O)CNS(=O)(=O)c3ccc(C)c(C)c3)CC2)cc1	-4%
33	Cc1ccsc1C(=O)N(Cc1nnc(-c2ccccc2Cl)o1)C1CC1	-8%
34	COc1ccc(N(CC(=O)NCc2ccccc2)S(=O)(=O)c2c(C)noc2C)cc1	1%
35	Oc1ccccc1C1CC(c2cccs2)=NC(c2cccc(Br)c2)N1 (configuration not stated)	71µM*
36	COc1c(Cl)cc(Cl)cc1/C=C(\C#N)c1nc2ccccc2[nH]1	4%
37	O=C(c1ccco1)N1CCN(c2nc3ccc(Cl)cc3s2)CC1	11%
38	Cc1ccnc2nc(C(=O)OCCOc3ccc(Cl)cc3)nn12	13%
39	O=c1c(-c2ccc(Cl)cc2)[n+]([O-])c2ccccc2n1OCc1ccccn1	12%
40	Cc1cc(C)c(S(=O)(=O)N2CCCC(C(=O)NCc3cccnc3)C2)c(C)c1 (configuration not stated)	-6%
41	Cc1cc(NC(=O)COC(=O)c2n[nH]c3ccccc23)no1	-6%
42	CCc1cc(=O)oc2cc(C)c3c(-c4ccc(F)cc4)coc3c12	-1%
43	c1csc(-c2ccc(N3CCOCC3)nn2)c1	2%
44	COc1ccc2[nH]c(CN3CCN(C(C)C)C(CCO)C3)c(C)c2c1 (configuration not stated)	16%
45	Cn1c(CSc2ncn[nH]2)nc2ccccc21	-3%
46	Cc1cc2c3c(c1C)C1(C(=O)N3C(C)(C)CC2C)C(C#N)=C(N)Oc2n[nH]c(C)c21 (configuration not stated)	-2%
47	Cc1cccc(N2CCN(C(=O)c3ccc4c(c3)CCN4S(C)(=O)=O)CC2)c1C	-4%
48	O=C(CN1CCCN(Cc2ccccc2F)S1(=O)=O)Nc1ccc(F)c(Cl)c1	0%
49	C/C(=N\N1C(=O)c2ccccc2NC1c1ccccc1)c1ccccc1O (configuration not stated)	-3%
50	Cc1ccc(NC(=O)CN2C(=O)NC3(CCCC3)C2=O)c(Cl)c1	-15%
51	CCOC(=O)C1(CC2CC2)CCN(Cc2cc(Cl)c(O)c(OC)c2)CC1	-3%
52	O=C(Nc1ccc2oc(-c3ccccc3F)nc2c1)c1ccco1	-9%
53	Cc1nn2c(-c3ccc(Cl)cc3)ccnc2c1-c1ccccc1	-1%
54	N#Cc1nc(-c2cccs2)oc1NCCCN1CCOCC1	-4%
55	O=C(CSc1nc2cc(C(F)(F)F)ccc2n1Cc1ccccc1)NC1CCS(=O)(=O)C1 (configuration not stated)	-8%
56	O=C(Nc1cc2c(cc1C(=O)c1ccccc1Cl)OCCO2)c1ccc(Br)cc1	-4%
57	CCOc1cc(/C=N/O)ccc1OCc1ccc(F)cc1	50µM*
58	CCn1c(N2CCN(S(=O)(=O)c3ccc(Cl)cc3)CC2)nc2ccccc21	1%
59	CC1(C)CC(=O)C2=C(C1)OC(N)=C(C#N)C2c1ccccc1 (configuration not stated)	1%
60	c1ccc(OCCCn2nnc(-c3ccncc3)n2)cc1	12%

Overlap with the part before: 4 compounds, then new ones.
no.	Structure	VDR inhibitor
57	CCOc1cc(/C=N/O)ccc1OCc1ccc(F)cc1	50µM*
58	CCn1c(N2CCN(S(=O)(=O)c3ccc(Cl)cc3)CC2)nc2ccccc21	1%
59	CC1(C)CC(=O)C2=C(C1)OC(N)=C(C#N)C2c1ccccc1 (configuration not stated)	1%
60	c1ccc(OCCCn2nnc(-c3ccncc3)n2)cc1	12%
61	N#CC(c1ccc(Cl)cc1)c1c(Cl)cc(-n2ncc(=O)[nH]c2=O)cc1Cl (configuration not stated)	28µM*
62	O=C(Nc1ccccc1)[C@@H]1CCCN1S(=O)(=O)c1ccc(Cl)cc1	-5%
63	Cc1c(C)n2c(SCC(=O)N3CCN(c4ccccc4)CC3)nnc2[nH]c1=O	-4%
64	CN(Cc1cccc(F)c1)C(=O)c1ccccc1Sc1ccccc1C#N	-13%
65	CCOC(=O)c1c(C)nc(-c2ccccc2)nc1NC(=O)CC	1%
66	C(/C=C/C=C/Nc1ccccc1)=Nc1ccccc1	8%
67	Cc1ccc(COC(=O)c2cccc(S(=O)(=O)N3CCCCC3)c2)cc1	-11%
68	COc1ccc(S(=O)(=O)N2CCCCC2)cc1NC(=O)CCc1nc2ccccc2c(=O)[nH]1	3%
69	Nc1nc(NCc2ccco2)nc(N2CCCCC2)c1[N+](=O)[O-]	-1%
70	Cc1cccc(NC(=O)c2ccc([N+](=O)[O-])o2)n1	u
71	Cc1ccc(C2=NN(C3=NN=C(N)Cc4ncnn43)C(O)(C(F)(F)F)C2)cc1 (configuration not stated)	-6%
72	COC(=O)c1ccc(C)c(NS(=O)(=O)c2ccc(C)c([N+](=O)[O-])c2)c1	1%
73	O=C(c1ccco1)N1CCN(Cc2cc(=O)c(OCc3ccccc3Cl)co2)CC1	8%
74	Cc1cccc(C)c1NC(=O)Nc1ccccc1-n1ccnc1	-3%
75	CC(=O)OCC[n+]1c(C)n(-c2ccccc2)c2ccc(Cl)cc21	4%
76	COc1ccc(-c2noc(CCC(=O)NCC3CCCO3)n2)cc1 (configuration not stated)	-4%
77	Cc1ccc(S(=O)(=O)NCCC(=O)OCc2ccc([N+](=O)[O-])cc2)cc1C	-2%
78	Cn1c(SCc2cccc(Cl)c2)nc(C(F)(F)F)cc1=O	-9%
79	NC(=S)NNc1cccc2cccnc12	u
80	CCCCN1CC(=O)N2[C@H]3c4ccc(OC)cc4OC[C@@H]3[C@H](c3ccccc3)[C@]2(C)C1=O	-15%
81	O=C(NCCCCc1ccccc1)c1cccc(NC(=O)C2CCC2)c1	-11%
82	CC(=O)c1cccc(NC(=O)N[C@@H](CC(C)C)C(=O)O)c1	1%
83	CCN1CCN(/C=N/c2nc(C)cs2)CC1	6%
84	COC(=O)c1sccc1S(=O)(=O)N1CCN(c2ccc(C)cc2C)CC1	3%
85	CCOc1ccc(C2NC(=O)CCC2[N+](=O)[O-])cc1 (configuration not stated)	-25%
86	CCOC(=O)c1sc(=S)n2c1[nH]c(=O)c1ccc(C(=O)OC)cc12	u
87	CCc1ccc(Nc2n[n+](-c3ccccc3)c(-c3cccc(Cl)c3Cl)s2)cc1	3%
88	COC(=O)[C@H](CC(C)C)N(Cc1ccccc1)S(=O)(=O)N(Cc1ccccc1)[C@@H](CC(C)C)C(=O)OC	1%
89	O=c1c(-c2ccccc2)nc2cnc(N3CCOCC3)nc2n1C[C@H]1CCCO1	-10%
90	CN1CCN(c2ccc([N+](=O)[O-])cc2NC(=O)c2ccccc2)CC1	-3%

no.	Structure	VDR inhibitor
91	Cc1ccc(C(C)(C)C)cc1S(=O)(=O)Nc1cccc(C(=O)N2CCN(c3ccccn3)CC2)c1	-27%
92	CCc1ccc(Nc2nc(C)cc(C)n2)cc1	-15%
93	CC1CCCCC12NC(=O)N(CC(=O)NNC(=O)c1ccc(Br)cc1)C2=O (configuration not stated)	0%
94	O=Cc1ccc2ccc3cccnc3c2n1	11%
95	Cc1ccc(-c2nc3sc4c(c3c(=O)n2N)CC(C)(C)OC4)cc1	10%
96	COc1cc(-c2nc3cccc(C)n3c2NCC2CCCO2)ccc1O (configuration not stated)	-2%
97	c1ccc(C[C@H]2CN=C(Nc3ccccc3)N2CC2CCCCCC2)cc1	-5%
98	CS(=O)(=O)N1CCC2(CCN(Cc3nccs3)CC2)CC1	6%
99	O=C(NNC(=O)c1ccc(Cl)cc1Cl)c1csc(-c2cccnc2)n1	-4%
100	CCOC(=O)c1c(N)sc(C(=O)Nc2ccccc2)c1C	u
101	CCCNC(=O)c1nnsc1Sc1ccc(Cl)cc1	-8%
102	COC(=O)c1ccc(CSc2nnc(CNC(=O)c3ccc(OC)cc3)o2)o1	14%
103	Clc1ccc(-c2nc3ncccn3c2Cl)cc1	9%
104	COc1ccc(-n2ncc3c2ncn2nc(COc4ccc(Cl)cc4)nc32)cc1	3%
105	O=C1CSC(c2ccncc2)N1Cc1ccc(F)cc1 (configuration not stated)	-3%
106	O=C(COC(=O)C1c2ccccc2Oc2ccccc21)Nc1ccc2c(c1)OCO2	12%
107	COc1ccc(CC(=O)NC(=S)Nc2ccc(S(N)(=O)=O)cc2)cc1	4%
108	CC(=O)c1cccc(NC(=O)CCn2c(=S)oc3ccccc32)c1	8%
109	C=CCn1cnnc1SCC(=O)N(C)CC1COc2ccccc2O1 (configuration not stated)	-9%
110	O=C(Nc1ccccc1[N+](=O)[O-])c1cccc(N2C(=O)CCC2=O)c1	-1%
111	Fc1ccc(Cc2nnc(-c3cccs3)o2)cc1	-5%
112	CC(=O)Nc1cccc(OCc2ccc(S(=O)(=O)Cc3ccccc3)cc2)c1	-13%
113	O=C(COC(=O)Cc1cn2ccsc2n1)NC12CC3CC(CC(C3)C1)C2	-11%
114	Nc1ccccc1C(=O)N=Nc1[nH]c(N)c2ccccc12	8%
115	COc1ccccc1C(=O)NC(=S)Nc1ccc(Cc2ccncc2)cc1	-24%
116	Cc1cc(C)cc(N(C(=O)CNC(=O)c2ccco2)C(C(=O)NC2CCCCC2)c2ccncc2)c1 (configuration not stated)	-3%
117	CN(C)S(=O)(=O)c1ccc(Cl)c(NC(=O)CN2CCNC(=O)C2)c1	-10%
118	O=C(CCC1CCCCC1)NCc1ccncc1	-1%
119	O=C(NC(=S)Nc1ccc(S(=O)(=O)Nc2nccs2)cc1)c1ccc(Br)o1	-8%
120	CCn1nc(C)c(CCC(=O)O)c1C	1%

no.	Structure	VDR inhibitor
121	CC(C)(C)c1cc(S(=O)(=O)CCc2ccccn2)cc(C(C)(C)C)c1F	-2%
122	CC(=O)c1ccc(OCc2cc(C(=O)N3CC[C@@H]4CCCC[C@H]4C3)no2)cc1	-4%
123	CC(C)(C)c1ccc(C(=O)NCc2nnc(SCC(=O)NCc3ccco3)o2)cc1	7%
124	COc1ccc(-c2cn3c(C)c(C(=O)Nc4cc(C)cc(C)c4)sc3n2)cc1	-6%
125	Cc1ccc(-c2nc3ccccc3s2)cc1NC(=O)COc1ccccc1	-16%
126	Cc1ccccc1OCC(O)Cn1c(N2CCCCC2)nc2c1c(=O)[nH]c(=O)n2C (configuration not stated)	-15%

Printed as active in VDR inhibitor, among the entries above:
no.	Structure	VDR inhibitor
35	Oc1ccccc1C1CC(c2cccs2)=NC(c2cccc(Br)c2)N1 (configuration not stated)	71µM*
57	CCOc1cc(/C=N/O)ccc1OCc1ccc(F)cc1	50µM*
61	N#CC(c1ccc(Cl)cc1)c1c(Cl)cc(-n2ncc(=O)[nH]c2=O)cc1Cl (configuration not stated)	28µM*

Compound activity: PubChem, National Center for Advancing Translational Sciences (NCATS)
